# Compound activity (PubChem BioAssay)
# CBX7 AlphaScr = blocks human CBX7 binding to H3K27me3 peptide. O95931. AlphaScreen His6-CBX7 / biotin-H3K27me3 peptide binding; stronger effect = lower value. normalised signal (fraction of DMSO) (concentration not given with the values). actives 1.1% (n = 66,000); in the data active = normalised signal below about 0.5;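 note: 100 nL library stock added to about 20 µL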
# Target sequence (O95931 whole entry, looked up): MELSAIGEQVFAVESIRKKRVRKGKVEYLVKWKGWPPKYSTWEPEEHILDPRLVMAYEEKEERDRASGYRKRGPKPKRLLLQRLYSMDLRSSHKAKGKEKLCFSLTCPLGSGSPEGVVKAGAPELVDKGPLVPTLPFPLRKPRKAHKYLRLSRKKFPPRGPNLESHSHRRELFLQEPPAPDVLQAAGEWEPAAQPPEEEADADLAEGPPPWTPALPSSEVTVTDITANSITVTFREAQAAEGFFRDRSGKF
# CBX7 AlphaScr z-score = second read-out of CBX7 AlphaScr, no call of its own (marks repeat the call); z-score; measured here: z-score of CBX7 signal; some inactives read as strong as hits; reference of the scale not given here;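 same signal on another scale; lower means less binding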
# Numbers without * were called inactive. Some of the compounds tested (hit frequency here may not be typical).
No.	structure	CBX7 AlphaScr	CBX7 AlphaScr z-score
1	COc1ccc(/C=C/c2nc3ccccc3c(=O)n2-c2ccc(OC)c(Cl)c2)cc1	0.96	-1.2
2	CCN(C(=O)CN1C(=O)C(C)N=C(c2ccccc2)c2cc(Cl)ccc21)c1cccc(C)c1 (stereo not drawn)	0.96	-0.77
3	Cc1cccc(CN2C(=O)CN=C(c3ccccc3Cl)c3cc(Cl)ccc32)c1	0.95	-0.97
4	CCCCNC(=O)CN1C(=O)C(CC(C)C)N=C(c2ccccc2)c2ccccc21 (stereo not drawn)	0.93	-1.1
5	Cc1cccc(-n2c(CN3C(=O)c4ccccc4C3=O)nc3ccccc3c2=O)n1	1	1.3
6	O=c1c2ccccc2nc(/C=C\c2cccc(Br)c2)n1-c1ccc(F)cc1	0.96	-0.97
7	Cc1cccc(NC(=O)CN2C(=O)C(C)N=C(c3ccccc3)c3cc(Cl)ccc32)c1C (stereo not drawn)	0.96	-0.53
8	CCC(=O)N1CC(=O)Nc2ccc(Cl)cc2C1c1ccc(F)cc1 (stereo not drawn)	0.98	-0.32
9	CN1CCC(O)(c2ccccc2)C(C(=O)c2ccccc2)C1 (stereo not drawn)	0.98	-0.17
10	O=C(CN1C(=O)CN=C(c2ccccc2)c2cc(Br)ccc21)NC1CCCCC1	0.92	-1.3
11	CC(C)c1ccc(NC(=O)CN2C(=O)CN=C(c3ccccc3F)c3cc(Cl)ccc32)cc1	0.87	-2.1
12	O=C(Nc1ccc(Br)cc1C(=O)c1ccccc1Cl)c1ccccc1F	1.1	3.7
13	CN1CC=C(c2noc(CCC(=O)Nc3ccc(F)cc3F)n2)CC1	1	0.22
14	Cc1ccccc1CN1C(=O)CN=C(c2ccccc2)c2ccccc21	0.93	-1.7
15	CC(C(=O)Nc1ccc(Cl)cc1C(=O)c1ccccc1)N1CCOCC1 (stereo not drawn)	1	1.1

# 6 entries from above, with one line to a screen.
7) Cc1cccc(NC(=O)CN2C(=O)C(C)N=C(c3ccccc3)c3cc(Cl)ccc32)c1C (stereo not drawn)
8) CCC(=O)N1CC(=O)Nc2ccc(Cl)cc2C1c1ccc(F)cc1 (stereo not drawn)
9) CN1CCC(O)(c2ccccc2)C(C(=O)c2ccccc2)C1 (stereo not drawn)
10) O=C(CN1C(=O)CN=C(c2ccccc2)c2cc(Br)ccc21)NC1CCCCC1
11) CC(C)c1ccc(NC(=O)CN2C(=O)CN=C(c3ccccc3F)c3cc(Cl)ccc32)cc1
12) O=C(Nc1ccc(Br)cc1C(=O)c1ccccc1Cl)c1ccccc1F
assay / entry	7	8	9	10	11	12
CBX7 AlphaScr	0.96	0.98	0.98	0.92	0.87	1.1
CBX7 AlphaScr z-score	-0.53	-0.32	-0.17	-1.3	-2.1	3.7

# Going on with the list:
No.	structure	CBX7 AlphaScr	CBX7 AlphaScr z-score
16	CC(C)CC1N=C(c2ccccc2)c2ccccc2N(CC(=O)NCc2cccc(Cl)c2)C1=O (stereo not drawn)	0.93	-1.3
17	Cn1c2ccccc2c2c(C(=O)N3CCC4(CC3)OCCO4)cn(C3CCCC3)c(=O)c21	0.96	-1.2
18	CNc1ccc(Br)cc1C(=O)c1ccccc1Cl	1.1	3.4
19	COc1cc(NC(=O)CN2C(=O)CN=C(c3ccccc3)c3ccccc32)cc(OC)c1	1.2	1.1
20	Cc1ccc(-c2nnn(CC(=O)N3c4ccc(C)cc4C4CN(C)CCC43)n2)cc1 (stereo not drawn)	0.81	-2.9
21	Cc1ccc(S(=O)(=O)NCC(=O)Nc2ccc(Cl)cc2C(=O)c2ccccc2)cc1	0.93	-1.3
22	NC(=O)C1(N2CCCCC2)CCN(CC(=O)Nc2ccc(Cl)cc2C(=O)c2ccccc2)CC1	0.85	-3.6
23	CCOC(=O)C1(c2ccccc2)CCN(CC(=O)Nc2ccccc2C(F)(F)F)CC1	1.1	1.4
24	Cc1ccccc1C1CC(c2cccnc2)Nc2ncnn21 (stereo not drawn)	1.1	0.84
25	CCOC(=O)c1c(C)n(Cc2ccccc2)c2ccc(OCC(O)CN3CCCCCC3)cc12 (stereo not drawn)	0.57	-0.74
26	CCCCCCCc1cc(O)c2c3c(c(=O)oc2c1)CCC(C)C3 (stereo not drawn)	0.91	-1
27	c1ccc(C2NCc3ccccc3-n3cccc32)cc1 (stereo not drawn)	0.89	-3.3
28	CCCC1=Nc2cc(C(=O)NCc3ccccc3OC)ccc2Sc2ccccc21	0.93	-3.5
29	Nc1c2c(nc3sc4c(c13)CCCC4)CCCC2	1.1	1
30	COc1ccc(-n2c(/C=C/c3cccc(O)c3)nc3ccccc3c2=O)cc1Cl	0.99	-0.14
31	CCOc1cc2c(cc1OCC)-n1cccc1C(c1ccc(Cl)cc1)NC2 (stereo not drawn)	0.84	-3.4
32	COc1cc2c(cc1OC)C(C(=O)N1CCC3(CC1)OCCO3)C(c1ccccc1F)N(C)C2=O (stereo not drawn)	1	0.51
33	CCOc1cc2c(cc1OCC)-n1cccc1C(c1cc(OC)ccc1F)NC2 (stereo not drawn)	0.81	-4.2
34	COc1cc2c(cc1OC)C(C(=O)N(C)c1ccc(Cl)cc1)C1CCCCN1C2=O (stereo not drawn)	0.97	-1
35	CC(C)CCNC(=O)CN1C(=O)C(C)N=C(c2ccccc2)c2ccccc21 (stereo not drawn)	0.96	-1.9
36	CCCCc1nc2ccccc2c(=O)n1-c1ccc(OC)cc1	1.1	2.4
37	C=CCN(C(=O)CN1C(=O)C(C)N=C(c2ccccc2)c2ccccc21)c1ccccc1 (stereo not drawn)	0.85	-2.7
38	CN1CCc2cc3c(c4c2C1Cc1ccccc1-4)OCO3 (stereo not drawn)	1	1
39	CC1N=C(c2ccccc2)c2ccccc2N(CC(=O)Nc2ccc(N(C)C)cc2)C1=O (stereo not drawn)	0.85	-7
40	O=C1CN=C(c2ccccc2Cl)c2cc(Br)ccc2N1	1	0.98
41	O=c1c2ccccc2nc(/C=C/c2cccc(F)c2)n1-c1ccc(Br)cc1	1	1.6
42	COc1ccc2[nH]c(C)c(CCNCc3ccc(F)cc3)c2c1	0.5	-9
43	COc1ccc(Cl)cc1NC(=O)CN1C(=O)C(C)N=C(c2ccccc2)c2ccccc21 (stereo not drawn)	1.1	0.37
44	Cc1ccc(NC(=O)CN2C(=O)CN=C(c3ccccc3)c3cc(Cl)ccc32)cc1	0.95	-0.98
45	COc1ccc2[nH]c3c(c2c1)CCNC3	0.94	-1.2
46	COc1cccc(-n2c(/C=C/c3c[nH]c4ccccc34)nc3ccccc3c2=O)c1	1.1	1.7
47	O=C(CN1CC(c2ccccc2)CC1=O)NCc1ccc(F)cc1Cl (stereo not drawn)	1	-0.077
48	COC(=O)c1ccccc1NC(=O)CN1C(=O)CN=C(c2ccccc2)c2ccccc21	0.95	-1.4
49	COc1ccccc1CC1C(=O)C2CCN1CC2 (stereo not drawn)	1.1	1.4
50	CCOc1cc2c(cc1OCC)C(c1cccnc1)NCC2 (stereo not drawn)	0.99	-0.22
51	COc1ccc(/C=C/c2nc3ccccc3c(=O)n2-c2ccc(C)c(C)c2)cc1O	0.98	-0.26
52	Cc1ccccc1-n1c(/C=C/c2c(C)[nH]c3ccccc23)nc2ccccc2c1=O	1	0.046
53	O=C(CN1C(=O)CN=C(c2ccccc2)c2ccccc21)Nc1cccc(Cl)c1	1.2	1.3
54	CCOC(=O)C1(c2ccccc2)CCN(CC(=O)Nc2ccccc2Cl)CC1	1.1	0.12
55	Cc1ccccc1CN1CCN(Cc2cccc(F)c2)CC1	0.94	-1
56	Cn1cc(CC(=O)N2CCN(C3CCCCC3)CC2)c2ccccc21	0.98	-0.69
57	O=C1CSC(c2ccc(OCc3ccccc3)cc2)c2c(n(C3CCCC3)[nH]c2=O)N1 (stereo not drawn)	0.98	-0.98
58	COc1ccc(-n2c(/C=C/c3ccc(O)cc3)nc3ccccc3c2=O)cc1	1	1
59	Cc1cc(C)cc(NC(=O)CN2C(=O)CN=C(c3ccccc3)c3cc(Br)ccc32)c1	0.83	-2.7
60	COc1ccc(NC(=O)CN2C(=O)C(C)N=C(c3ccccc3)c3cc(Cl)ccc32)cc1OC (stereo not drawn)	0.78	-3.2
61	O=c1c2ccccc2nc(/C=C\c2ccc(F)c(F)c2)n1-c1cccc(Cl)c1	0.94	-1.5
62	O=C(Nc1ccc(Br)cc1C(=O)c1ccccc1Cl)c1cccc(Oc2ccccc2)c1	0.96	-0.88
63	O=C(COc1cc(Cl)ccc1Cl)Nc1ccc(Cl)cc1C(=O)c1ccccc1	1	0.082
64	Cc1ccccc1CN1C(=O)C(C)N=C(c2ccccc2)c2ccccc21 (stereo not drawn)	0.87	-3.5
65	O=C(O)c1[nH]c2ccccc2c1CC(=O)N1CCN(Cc2ccc3c(c2)OCO3)CC1	0.94	-1.6
66	N#Cc1ccc(C2NCc3ccccc3-n3cccc32)cc1 (stereo not drawn)	1.1	0.76
67	COc1ccc(-n2nnnc2C2(NCCc3c(C)[nH]c4c(Cl)ccc(Cl)c34)CCCCC2)cc1	0.74	-0.26
68	CCCCCOc1ccc(C2SCC(=O)Nc3c2c(=O)[nH]n3C(C)CC)cc1 (stereo not drawn)	1	0.68
69	CCCC(=O)N1c2ccc(C)cc2[C@@H]2CN(C)CC[C@@H]21	1	1.9
70	Cc1ccc(NC(=O)CN2C(=O)C(C)N=C(c3ccccc3)c3ccccc32)cc1Cl (stereo not drawn)	0.9	-4.7
71	CCc1cccc(NC(=O)CN2C(=O)CN=C(c3ccccc3F)c3cc(Cl)ccc32)c1	0.84	-2.6
72	COc1cccc(-n2c(-c3ccc(C)cc3)nc3ccccc3c2=O)c1	0.94	-1.5
73	O=C(CN1CC(c2ccccc2)CC1=O)NCCc1ccccc1 (stereo not drawn)	1	0.8
74	O=c1c2ccccc2nc(/C=C/c2cccc(F)c2)n1-c1ccccc1F	1	1.6
75	O=c1c2ccccc2nc(/C=C/c2ccccc2F)n1-c1ccccc1O	0.84	-3.8

# Following part.
No.	structure	CBX7 AlphaScr	CBX7 AlphaScr z-score
76	CCOC(=O)CNC1(c2nnnn2-c2c(C)cccc2CC)CCCCC1	1.1	3.3
77	CSc1cccc(NC(=O)CN2C(=O)CN=C(c3ccccc3)c3cc(Cl)ccc32)c1	0.76	-2.9
78	C/C=C1/CN2CCC34C(=C(C(=O)OC)C1CC23)Nc1c(O)cccc14 (stereo not drawn)	0.97	-0.63
79	CCC(=O)N1N=C2C3CCN(CC3)C2C1c1ccc(OC)cc1 (stereo not drawn)	1	0.67
80	CCN(CC)C(=O)c1ccc(NC(=O)Cn2nc(-c3ccccc3)c3ccccc3c2=O)cc1	0.83	-2
81	O=C(CN1C(=O)CN=C(c2ccccc2)c2cc(Cl)ccc21)NCCC1=CCCCC1	0.92	-1.6
82	CCOC(=O)N1CCC(Nc2c(N3CC4CC(C3)c3cccc(=O)n3C4)c(=O)c2=O)CC1 (stereo not drawn)	0.91	-1
83	Cc1ccc(NC(=O)CN2C(=O)CN=C(c3ccccc3)c3ccccc32)c(C)c1	1.1	0.58
84	COc1ccc(CCNC(=O)CN2C(=O)C(C)N=C(c3ccccc3)c3ccccc32)cc1OC (stereo not drawn)	1	-0.18
85	Cc1ccc(C2NCc3ccccc3-n3cccc32)c(C)c1 (stereo not drawn)	0.94	-0.59
86	CCOc1ccc(-n2c(/C=C\c3ccc(F)c(F)c3)nc3ccccc3c2=O)cc1	0.97	-0.86
87	Cc1ccc(NC(=O)CN2C(=O)CN=C(c3ccccc3)c3cc(Br)ccc32)c(Cl)c1	0.79	-3.4
88	COc1ccc2[nH]c(C)c(CCNCc3cccnc3)c2c1	1.1	0.17
89	O=C(c1c[nH]c2ccc(S(=O)(=O)N3CCOCC3)cc2c1=O)N1CCC2(CC1)OCCO2	1.1	1.1
90	COc1ccc2[nH]c(C)c(CCNCc3ccc(F)cc3F)c2c1	0.51	-8.9
91	CN(C)c1ccc(NC(=O)CN2C(=O)CN=C(c3ccccc3)c3cc(Cl)ccc32)cc1	0.69	-5.6
92	COc1cc2c(cc1OC)C(C(=O)Nc1cccnc1)C1CCCCN1C2=O (stereo not drawn)	0.96	-1.1
93	Cc1ccc(-n2c(/C=C/c3c(C)[nH]c4ccccc34)nc3ccccc3c2=O)cc1	1	0.084
94	Cc1ccc(-n2c(/C=C/c3cn(C)c4ccccc34)nc3ccccc3c2=O)cc1	0.95	-0.51
95	COc1ccccc1CN1CCN(Cc2ccc(SC)cc2)CC1	0.98	-0.41
96	Cc1ccc(NC(=O)CN2C(=O)CN=C(c3ccccc3)c3cc(Br)ccc32)c(C)c1	0.84	-2.6
97	O=c1c2ccccc2nc(/C=C/c2ccccc2)n1-c1ccc(F)cc1	1	0.92
98	CC(C)CC1N=C(c2ccccc2)c2ccccc2N(CC(=O)NCCC2=CCCCC2)C1=O (stereo not drawn)	0.87	-2.4
99	COc1cc(/C=C/c2nc3ccccc3c(=O)n2-c2ccc(C)c(C)c2)ccc1O	1	0.085
100	Cc1ccc(-c2nc3ccccc3c(=O)n2-c2cccnc2)cc1	1	0.41
101	COc1ccc(C2SCC(=O)N(C)c3c2c(C)nn3C)cc1OC (stereo not drawn)	1.1	0.83
102	CN1CCN(C(=O)Cc2ccc(NC3=NC4CS(=O)(=O)CC4S3)cc2)CC1 (stereo not drawn)	1	0.46
103	CCOc1cc(C2NCc3cc(OCC)c(OCC)cc3-n3cccc32)ccc1OC (stereo not drawn)	0.94	-0.54
104	Cc1nc2ccccc2c(=O)n1-c1ccc(C(=O)O)cc1	0.81	-0.74
105	Cc1c2cnn(CC(=O)N3CCC4(CC3)OCCO4)c(=O)c2c(C)n1Cc1ccccc1	0.97	-0.23
106	COc1ccc(/C=C/c2nc3ccccc3c(=O)n2-c2ccc(C)cc2C)cc1	1.2	0.18
107	Cc1nc2c(-c3ccc(F)cc3)c(C)nn2c(C)c1CCC(=O)N1CCC2(CC1)OCCO2	1	0.87
108	COc1ccc(-n2nnnc2C2(NCCc3c(C)[nH]c4c(Cl)c(Cl)ccc34)CCCCC2)cc1	0.68	-0.32
109	CC(=O)N1CC(=O)Nc2ccc(Br)cc2C1c1ccccc1Cl (stereo not drawn)	1	0.11
